# Screening data as filed in PubChem.
# nsP2pro inh = blocks chikungunya virus nsP2 protease peptide cleavage; 31,000 compounds, 1.1% hits; FRET peptide cleavage, nsP2pro, fluorescence 1 h; AID 1964107; Potency, µM (doses to about 24.9 µM), for the others: top-dose activity change, negative = inhibition, hits mostly inhibitors; Q8JUX6; active means well fitted inhibition curve with a large enough effect; inconclusive means small, poorly fitted or top-dose-only effect; inactive means no such curve, though single readings can be large or run the other way; note: nearly all actives have a fitted effect of over 60% in size; a reference inhibitor and vehicle were the controls
# Target sequence (Q8JUX6 whole entry, looked up): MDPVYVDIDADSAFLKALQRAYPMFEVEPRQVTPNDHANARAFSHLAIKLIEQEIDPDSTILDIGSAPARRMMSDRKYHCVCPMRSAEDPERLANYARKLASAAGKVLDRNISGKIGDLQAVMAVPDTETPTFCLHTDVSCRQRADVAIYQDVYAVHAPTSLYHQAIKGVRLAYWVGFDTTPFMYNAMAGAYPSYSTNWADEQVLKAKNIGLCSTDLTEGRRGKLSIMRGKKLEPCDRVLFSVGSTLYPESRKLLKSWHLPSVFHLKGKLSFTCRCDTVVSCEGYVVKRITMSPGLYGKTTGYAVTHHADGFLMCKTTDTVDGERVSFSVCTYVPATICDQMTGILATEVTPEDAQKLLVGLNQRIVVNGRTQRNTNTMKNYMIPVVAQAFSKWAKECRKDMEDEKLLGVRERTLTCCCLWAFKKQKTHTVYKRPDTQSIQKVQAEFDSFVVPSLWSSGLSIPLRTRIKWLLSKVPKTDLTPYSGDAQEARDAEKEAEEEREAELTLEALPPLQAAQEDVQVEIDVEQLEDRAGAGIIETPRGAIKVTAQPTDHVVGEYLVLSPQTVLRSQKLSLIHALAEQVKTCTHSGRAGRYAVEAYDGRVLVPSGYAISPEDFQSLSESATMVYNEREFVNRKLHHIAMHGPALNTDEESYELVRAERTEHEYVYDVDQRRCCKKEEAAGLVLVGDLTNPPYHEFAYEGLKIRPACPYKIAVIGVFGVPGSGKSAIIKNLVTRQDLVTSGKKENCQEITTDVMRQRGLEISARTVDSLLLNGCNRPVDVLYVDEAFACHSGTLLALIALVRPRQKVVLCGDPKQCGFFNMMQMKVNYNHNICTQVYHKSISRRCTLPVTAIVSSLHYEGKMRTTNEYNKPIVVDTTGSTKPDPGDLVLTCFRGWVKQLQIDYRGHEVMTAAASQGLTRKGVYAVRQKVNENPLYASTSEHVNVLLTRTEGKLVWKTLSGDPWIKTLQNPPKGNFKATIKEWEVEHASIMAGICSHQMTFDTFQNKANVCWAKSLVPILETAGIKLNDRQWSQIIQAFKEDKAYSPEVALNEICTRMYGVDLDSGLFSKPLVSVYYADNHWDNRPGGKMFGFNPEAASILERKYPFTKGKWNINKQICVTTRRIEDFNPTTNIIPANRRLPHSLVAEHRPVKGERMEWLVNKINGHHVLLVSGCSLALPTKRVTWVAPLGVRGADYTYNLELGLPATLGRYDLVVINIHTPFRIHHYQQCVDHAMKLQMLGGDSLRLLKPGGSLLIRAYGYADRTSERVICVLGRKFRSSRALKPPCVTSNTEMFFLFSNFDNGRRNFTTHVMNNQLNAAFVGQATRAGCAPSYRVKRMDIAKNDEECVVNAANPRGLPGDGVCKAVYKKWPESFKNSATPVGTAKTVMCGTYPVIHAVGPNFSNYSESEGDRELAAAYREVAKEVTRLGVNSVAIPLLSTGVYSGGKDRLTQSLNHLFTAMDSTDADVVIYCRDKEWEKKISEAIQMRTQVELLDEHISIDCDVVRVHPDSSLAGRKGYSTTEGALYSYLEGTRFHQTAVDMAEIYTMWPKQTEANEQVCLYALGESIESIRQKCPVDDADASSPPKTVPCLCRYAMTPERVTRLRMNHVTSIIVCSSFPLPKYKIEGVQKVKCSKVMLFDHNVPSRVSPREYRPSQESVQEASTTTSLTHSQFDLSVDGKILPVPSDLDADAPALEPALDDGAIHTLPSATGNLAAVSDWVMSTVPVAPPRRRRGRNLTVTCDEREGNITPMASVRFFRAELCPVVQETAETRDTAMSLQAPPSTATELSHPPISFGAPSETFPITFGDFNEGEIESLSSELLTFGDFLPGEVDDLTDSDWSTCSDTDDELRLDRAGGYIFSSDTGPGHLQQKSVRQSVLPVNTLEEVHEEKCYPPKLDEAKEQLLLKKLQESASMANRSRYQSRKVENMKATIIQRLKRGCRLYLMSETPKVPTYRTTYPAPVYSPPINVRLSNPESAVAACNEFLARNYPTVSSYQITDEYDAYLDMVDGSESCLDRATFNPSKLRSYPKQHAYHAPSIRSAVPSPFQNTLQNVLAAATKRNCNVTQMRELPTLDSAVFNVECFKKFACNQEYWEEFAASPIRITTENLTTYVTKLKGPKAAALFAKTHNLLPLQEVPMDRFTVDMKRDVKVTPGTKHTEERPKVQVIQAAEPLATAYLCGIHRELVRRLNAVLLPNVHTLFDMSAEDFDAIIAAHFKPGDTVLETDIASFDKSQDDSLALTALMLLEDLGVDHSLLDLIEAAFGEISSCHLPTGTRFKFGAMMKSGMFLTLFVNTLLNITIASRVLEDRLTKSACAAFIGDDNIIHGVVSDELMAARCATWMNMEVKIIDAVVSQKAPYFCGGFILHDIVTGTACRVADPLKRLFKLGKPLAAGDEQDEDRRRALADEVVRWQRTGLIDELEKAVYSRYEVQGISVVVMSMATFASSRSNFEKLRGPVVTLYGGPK
# An asterisk follows results filed as active; i = inactive; u = inconclusive; & = joins results of further samples; [ ] = dose if it differs, or a comment. % is set by controls: 0 for no effect and ±100 for the full control effect; potency is the fitted concentration of half-maximal effect. Not all compounds are listed; the hit share may differ from the screen's.
SMILES,nsP2pro inh
C[C@@H](CO)Nc1cc2c(cc1[S+](=O)([O-])Nc1ccc(Cl)c(Cl)c1)CCC(=O)N2,-2%
Cn1c(=O)c2c(nc(SCC(=O)Nc3ccc(OC(F)(F)F)cc3)n2Cc2cccc(C(F)(F)F)c2)n(C)c1=O,-12%
Cc1ccc2c(C)c(C(=O)NCC(c3ccc(Cl)cc3)N3CCOCC3)oc2c1 (configuration not stated),-2%
COCCNC(=O)C1c2ccccc2C(=O)N(Cc2ccco2)C12CCCCC2 (configuration not stated),-15%
O=[N+]([O-])c1ccc(-[n+]2nc(-c3ccccc3)nn2-c2ccc(I)cc2)cc1,-1%
O=C(CN1C(=O)CSc2ccc(S(=O)(=O)N3CCCC3)cc21)NCc1ccc(Cl)cc1,-16%
CC(C)NC(=O)c1nn(C)c2c1CS(=O)(=O)c1ccccc1-2,-22%
COc1ccc(CN2C(=O)[C@@H]3C[C@@H](O)CN3C3(CN(C)C3)C2=O)cc1,-3%[39.2 µM]
Cc1ccc(CNC(=O)CSc2nc3c(sc4ccccc43)c(=O)n2CCCC(=O)NCCO)cc1,-8%
O=C(NCCc1ccc(O)c(O)c1)c1cc2sccc2n1Cc1ccccc1,i
CC(=O)Nc1ccc(OC2=NS(=O)(=O)c3ccccc32)cc1,-8%
COc1ccc([S+](=O)([O-])N2CCCN([S+](=O)([O-])c3ccc(OC)c(N)c3)CC2)cc1N,-6%
S=C1SCN(Cc2ccccc2)CN1Cc1ccccc1,-6%[39.2 µM]
CCCCCCSc1nnc2c(n1)OC(C)Nc1ccc(Br)cc1-2 (configuration not stated),-12%
CC(=O)C1=CCC2C3CCC4CC(O[C@@H]5O[C@H](CO)[C@@H](O[C@@H]6O[C@@H](C)[C@H](O)[C@@H](O)[C@H]6O)[C@H](O)[C@H]5O[C@@H]5O[C@H](CO)[C@@H](O)[C@H](O)[C@H]5O)CCC4(C)C3CCC12C (some centres not stated),-5%[10 µM]
CC(C)c1ccccc1-c1nc(NCC2CCN(c3cccnc3)CC2)c2ccccc2n1,i
Cc1cn(-c2cc(F)cc(NC(=O)c3ccc(C)c(Nc4nccc(-c5cccnc5)n4)c3)c2)cn1,i
COc1ccc(-c2noc(-c3ccc(N4CCN(c5ccccc5OC)CC4)c([N+](=O)[O-])c3)n2)cc1,-11%
CN(Cc1ccc(-n2cccn2)cc1)Cc1nc(Cc2cccc(F)c2)no1,i
CC[N+]1(C)C2CC(OC(=O)[C@H](CO)c3ccccc3)CC1[C@@H]1O[C@H]21 (some centres not stated),7%
O=c1ccc2ccc3occc3c2o1,-11%[39.2 µM]
Brc1ccc([C@H]2CN3CCSC3=N2)cc1,6%
Cc1c(C(=O)Nc2cccc(C(F)(F)F)c2)cc(-c2ccccc2)n1CCCN1CCOCC1,9%
O=C(Cc1nc2ccc(Cl)cc2[nH]1)Nc1ccc(S(=O)(=O)Nc2nccs2)cc1,-18%
O=[N+]([O-])O[C@@H]1CO[C@H]2[C@@H]1OC[C@@H]2O,16%[39.2 µM]
O=C(O)c1ccnc2cc(C(OCCN3CCCCC3)c3ccccc3Cl)[nH]c12 (configuration not stated),-21%&-11%&-15%
COC(=O)c1ccccc1NC(=O)C1(c2cccs2)CCOCC1,-14%
C[C@]12CC[C@H](O)C[C@@H]1CC[C@@H]1[C@@H]2CC[C@]2(C)C(=O)CC[C@@H]12,-2%
O=C1NC2CCc3nc4ccccc4c(=O)n3C2=Nc2ccccc21 (configuration not stated),-1%
O=C1Nc2ccccc2/C1=C/c1cccc(C(=O)O)c1,i
CCOc1ccc(-c2nnc(SCC(=O)NCc3ccc(Cl)cc3)o2)cc1,-7%
Cc1cccc(N2CCN(C(c3ccccc3)c3nnc(-c4ccccc4Cl)o3)CC2)c1C (configuration not stated),-7%
CC(C(=O)O)c1ccc(/C=C2\CCCCC2=O)cc1 (configuration not stated),6%
CCOC(=O)C1CCN(C(=O)C2CCN(C3=NS(=O)(=O)C(c4ccc(C)cc4)=C3CC)CC2)CC1,-15%
COc1cccc(C(=O)NCc2ccc3c(c2)CCN3C(=O)c2ccncc2)c1,-13%
COc1cccc(CNC(=O)Cn2ncc3c4ccccc4n(C)c3c2=O)c1,-24%
COc1ccc(C2Nc3ccccc3C(=O)N2Cc2ccccc2)cc1COc1cccc(C)c1 (configuration not stated),-9%
CCCn1c(-c2ccc(F)cc2)nc2c(NCC3CCCN3CC)nc(C)nc21 (configuration not stated),i
CCc1ccc2ncc(C(=O)c3ccc(C)c(C)c3)c(N3CCC(C(N)=O)CC3)c2c1,-4%
CN(C)Cc1ccccc1,-3%
CCC(CC)C(=O)N1CCC2(CC1)C(=O)N(C)c1ccccc12,4%
CC(=O)N[C@@H]1[C@@H](O)[C@H](O)[C@@H](CO)O[C@H]1O,-10%
Cc1onc(-c2ccccc2)c1C(=O)N1CCN(c2ccc([N+](=O)[O-])cc2Cl)CC1,-10%
Cn1nc2n(c1=O)CCN(Cc1ccc(Br)s1)CC2,2%
O=C(c1ccccc1)N1Cc2[nH]cnc2C[C@H]1c1nc(-c2ccc(Cl)cc2)no1,i
O=C(c1ccoc1)N1CCCC(n2cc(-c3nc(C4CC4)no3)nn2)C1 (configuration not stated),4%
Cc1ccc(CNC(=O)CSC2=Nc3ccccc3C3=NC(C)C(=O)N23)cc1 (configuration not stated),-15%
O=C(c1cccs1)N1CCCC(Cc2noc(-c3cnccn3)n2)C1 (configuration not stated),i
CCOc1ccc(-c2cc(OC(=O)c3ccccc3)c3c(C)oc(C)c3c(=O)c2)cc1,u
O=C(Nc1nnc(-c2ccncc2)s1)Oc1ccc2ccccc2c1,i
O=c1c2ccccc2nc2n1CCC2O (configuration not stated),-2%[39.2 µM]
CC1OC(O[C@@H]2[C@@H](O)[C@H](OC(=O)[C@]34CCC(C)(C)C[C@H]3C3=CCC5[C@@]6(C)CC[C@H](O[C@@H]7O[C@H](C(=O)O)[C@@H](O)[C@H](O[C@@H]8OC[C@@H](O)[C@H](O)[C@H]8O)[C@H]7O[C@@H]7O[C@H](CO)[C@H](O)[C@H](O)[C@H]7O)[C@@](C)(C=O)C6CC[C@@]5(C)[C@]3(C)C[C@H]4O)O[C@H](C)[C@@H]2OC2OC(C)C(OC3OCC(O)C(O)C3O)C(O)C2O)C(O)C(O)C1O (some centres not stated),3%[5.1 µM]
CCOC(=O)c1cn(C2CN(S(=O)(=O)c3ccc(C)c(C)c3)C2)nn1,-13%
Cc1cccc(N2CCN(S(=O)(=O)c3c(C)[nH]c(=O)[nH]c3=O)CC2)c1C,-22%
NC(=O)[C@H](O[C@@H]1O[C@H](CO)[C@@H](O)[C@H](O)[C@H]1O)c1ccccc1,11%
Cc1ccc(C2(O)CCN(C(=O)c3cnn4cc(CCO)cnc34)CC2)nc1,i
COc1ccc(NC(=O)c2[nH]nc3c2CSc2ccccc2-3)c(OC)c1,-20%
CCOc1ccc(NC(=O)c2ccc3c(=O)n4nc(Nc5ccccc5C)sc4nc3c2)cc1,-15%
CC[C@H]1OC(=O)[C@H](C)[C@@H](O[C@H]2C[C@@](C)(OC)[C@@H](O)[C@H](C)O2)[C@H](C)[C@@H](O[C@@H]2O[C@H](C)C[C@H](N(C)C)[C@H]2O)[C@](C)(O)C[C@@H](C)C(=O)[C@H](C)[C@H]2OC(=O)O[C@@]21C,-12%
COc1ccccc1NC(=O)CSC1=Nc2ccccc2N=C(c2ccc(F)cc2)C1,-18%

# Continued.
SMILES,nsP2pro inh
Cc1ccc(CNC(=O)c2cnc3c(-c4ccccc4)c(C)nn3c2C)o1,-25%
CC(C)(C)c1ccc2c(c1)CC[C@H]2NC(=O)Nc1cccc2[nH]ncc12,12%
CCn1ccc2cc(S(=O)(=O)N3CCCN(C(=O)Nc4ccccc4OC)CC3)ccc21,-8%
CNc1cc2[nH]c(=O)n(-c3ccc(NC(=O)NS(=O)(=O)c4ccc(Cl)s4)cc3)c(=O)c2cc1F,-3%
Cc1cnc(-c2ccncc2)n1CC1CCN(C(=O)CCCc2ccccc2)C1 (configuration not stated),i
COc1cccc(CNc2ccc(S(=O)(=O)Nc3ccc4ccccc4c3)cc2)c1O,-21%
Cc1ccc(NC(=O)N2CCC(n3c(C)cnc3-c3cccnc3)C2)cc1C (configuration not stated),-11%
CCn1ccc2cc(S(=O)(=O)N3CCCN(C(=O)NCC(C)C)CC3)ccc21,-14%
CC(C)c1ccc(S(=O)(=O)N2CCN(CC(=O)Nc3ccccc3C(F)(F)F)CC2)cc1,-17%
COCCn1c(C)cnc1CCNC(=O)NCC(C)C,i
CCOc1ccccc1C(=O)N1CCN(CCc2ccccn2)CC1,-23%
Cc1csc(CNc2ncnc3ccc(-c4ccco4)cc23)c1,-3%
CC(C)(C)NC(=O)[C@H]1CC[C@H]2[C@@H]3CC=C4C=C(C(=O)O)CC[C@]4(C)[C@H]3CC[C@]12C,-20%
COC(=O)C1(C)CCC(O)C2(C)c3cc(O)c(C(C)C)cc3C(O)C(OC(C)=O)C12 (configuration not stated),23%[10 µM]
NC(=O)[C@@H](Cc1c[nH]c2ccccc12)NC(=O)[C@H]1CN(C(=O)C2CCNCC2)CCN1C(=O)N1CCOCC1,1%
CC(C)C(=O)NCC1(N(C)C)CCCCC1,13%
Cc1cnc(CCNC(=O)c2ccc(C#N)cc2)n1C1CC1,i
Oc1ccc(O)cc1,-13%
CN1c2cccnc2CN(Cc2ccc(Cl)cc2)CC[C@H]1CO,-4%[39.2 µM]
CN(C)C(=O)CCN1CCOC(CC(c2ccccc2)c2ccccc2)C1 (configuration not stated),-2%
Cc1ccc(S(=O)(=O)C(CNS(=O)(=O)c2ccc(F)c(C(F)(F)F)c2)c2ccco2)cc1 (configuration not stated),-23%
COc1ccc(C)cc1NC(=O)CCn1nc(C)cc1C,-5%
O=C(Cn1c(-c2cccs2)cc2cc(Cl)ccc21)N1CCN(c2ccccc2F)CC1,-26%
Cc1noc(-c2ccco2)c1C(=O)NC(C)c1ccccc1 (configuration not stated),-1%
CC(=O)OC1C(OC(=O)c2ccccc2)C2C(=C(C)CCC2(C)C)C23CCC(C)(C2)C(=O)CC13 (configuration not stated),-12%[10 µM]
COCCN(Cc1nccs1)Cc1cn[nH]c1-c1ccc(F)cc1,-1%
Cc1ccc(N2CC(NC(=O)Cc3cccs3)CC2=O)cc1C (configuration not stated),-4%
O=C(NCCc1nc2ccccc2n1CCOc1ccc(Cl)cc1)C1CCCCC1,-5%
O=C(Nc1ccccc1)Nc1nnc(-c2ccncc2)s1,-2%
Cc1ccc(C(=O)N2CC(Oc3ccc(F)c(C)c3)C2)cc1,-12%[39.2 µM]
CNS(=O)(=O)c1cn(CC(=O)N2CCN(c3ccc(Cl)cc3)CC2)cc1S(=O)(=O)NC,-16%
O=C1c2ccccc2NC(c2ccc(-c3cccc(F)c3)o2)N1O (configuration not stated),u
CC1CCCCN1C(=O)c1ccc2c(c1)N(Cc1cccc(Cl)c1)C(=O)c1ccccc1S2=O (configuration not stated),-14%
CCN(CC)CCNC(=O)c1cc(S(C)(=O)=O)ccc1OC,-4%
CC(C)=CCC[C@](C)(O)[C@H]1CC[C@]2(C)[C@@H]1[C@H](O)CC1[C@@]3(C)CC[C@H](O)C(C)(C)C3[C@@H](O[C@@H]3O[C@H](CO)[C@@H](O)[C@H](O)[C@H]3O[C@@H]3OC[C@@H](O)[C@H](O)[C@H]3O)C[C@]12C (some centres not stated),-10%[10 µM]
Cc1nc(-c2cccc(Cl)c2)n(CC(=O)NCc2ccc(F)cc2)c(=O)c1CCO,i
Cc1ccc(C)c(OCCCC(C)(C)C(=O)O)c1,-17%&-10%
C[C@@H]1CC[C@]2(C(=O)OC3OC(CO)C(O)C(O)C3O)CC[C@]3(C)C(=CCC4[C@@]5(C)CC[C@H](O)[C@](C)(C(=O)O)C5CC[C@]43C)C2[C@]1(C)O (some centres not stated),10%[10 µM]
Cc1ccc(S(=O)(=O)N[C@@H](Cc2ccccc2)C(=O)CCl)cc1,0%

# In the list so far, 17 contain a Cl atom.
SMILES,nsP2pro inh
C[C@@H](CO)Nc1cc2c(cc1[S+](=O)([O-])Nc1ccc(Cl)c(Cl)c1)CCC(=O)N2,-2%
Cc1ccc2c(C)c(C(=O)NCC(c3ccc(Cl)cc3)N3CCOCC3)oc2c1 (configuration not stated),-2%
O=C(CN1C(=O)CSc2ccc(S(=O)(=O)N3CCCC3)cc21)NCc1ccc(Cl)cc1,-16%
O=C(Cc1nc2ccc(Cl)cc2[nH]1)Nc1ccc(S(=O)(=O)Nc2nccs2)cc1,-18%
O=C(O)c1ccnc2cc(C(OCCN3CCCCC3)c3ccccc3Cl)[nH]c12 (configuration not stated),-21%&-11%&-15%
CCOc1ccc(-c2nnc(SCC(=O)NCc3ccc(Cl)cc3)o2)cc1,-7%
Cc1cccc(N2CCN(C(c3ccccc3)c3nnc(-c4ccccc4Cl)o3)CC2)c1C (configuration not stated),-7%
Cc1onc(-c2ccccc2)c1C(=O)N1CCN(c2ccc([N+](=O)[O-])cc2Cl)CC1,-10%
O=C(c1ccccc1)N1Cc2[nH]cnc2C[C@H]1c1nc(-c2ccc(Cl)cc2)no1,i
CNc1cc2[nH]c(=O)n(-c3ccc(NC(=O)NS(=O)(=O)c4ccc(Cl)s4)cc3)c(=O)c2cc1F,-3%
CN1c2cccnc2CN(Cc2ccc(Cl)cc2)CC[C@H]1CO,-4%[39.2 µM]
O=C(Cn1c(-c2cccs2)cc2cc(Cl)ccc21)N1CCN(c2ccccc2F)CC1,-26%
O=C(NCCc1nc2ccccc2n1CCOc1ccc(Cl)cc1)C1CCCCC1,-5%
CNS(=O)(=O)c1cn(CC(=O)N2CCN(c3ccc(Cl)cc3)CC2)cc1S(=O)(=O)NC,-16%
CC1CCCCN1C(=O)c1ccc2c(c1)N(Cc1cccc(Cl)c1)C(=O)c1ccccc1S2=O (configuration not stated),-14%
Cc1nc(-c2cccc(Cl)c2)n(CC(=O)NCc2ccc(F)cc2)c(=O)c1CCO,i
Cc1ccc(S(=O)(=O)N[C@@H](Cc2ccccc2)C(=O)CCl)cc1,0%

# Reprinted at random: two records from the list, in no set order.
SMILES,nsP2pro inh
O=C(Cc1nc2ccc(Cl)cc2[nH]1)Nc1ccc(S(=O)(=O)Nc2nccs2)cc1,-18%
Cc1ccc(CNC(=O)CSc2nc3c(sc4ccccc43)c(=O)n2CCCC(=O)NCCO)cc1,-8%
